Screens from PubChem BioAssay.
nsP2pro inh: Primary qHTS for inhibitors of NSP2Pro chikungunya virus (CHIKV). FRET peptide cleavage, nsP2pro, fluorescence 1 h. Polyprotein P1234 (Chikungunya virus (strain S27-African prototype)), Q8JUX6. actives 1.1% (n = 31,000). Potency, µM (highest dose often 24.9 µM), without a hit: at the highest dose activity change, negative = inhibition, hits mostly inhibitors; active means well fitted inhibition curve with a large enough effect; inconclusive means small, poorly fitted or top-dose-only effect; inactive means no such curve, though single readings can be large or run the other way; further: nearly all actives have a fitted effect of over 60% in size; a reference inhibitor and vehicle were the controls
Target sequence (Q8JUX6 whole entry, looked up): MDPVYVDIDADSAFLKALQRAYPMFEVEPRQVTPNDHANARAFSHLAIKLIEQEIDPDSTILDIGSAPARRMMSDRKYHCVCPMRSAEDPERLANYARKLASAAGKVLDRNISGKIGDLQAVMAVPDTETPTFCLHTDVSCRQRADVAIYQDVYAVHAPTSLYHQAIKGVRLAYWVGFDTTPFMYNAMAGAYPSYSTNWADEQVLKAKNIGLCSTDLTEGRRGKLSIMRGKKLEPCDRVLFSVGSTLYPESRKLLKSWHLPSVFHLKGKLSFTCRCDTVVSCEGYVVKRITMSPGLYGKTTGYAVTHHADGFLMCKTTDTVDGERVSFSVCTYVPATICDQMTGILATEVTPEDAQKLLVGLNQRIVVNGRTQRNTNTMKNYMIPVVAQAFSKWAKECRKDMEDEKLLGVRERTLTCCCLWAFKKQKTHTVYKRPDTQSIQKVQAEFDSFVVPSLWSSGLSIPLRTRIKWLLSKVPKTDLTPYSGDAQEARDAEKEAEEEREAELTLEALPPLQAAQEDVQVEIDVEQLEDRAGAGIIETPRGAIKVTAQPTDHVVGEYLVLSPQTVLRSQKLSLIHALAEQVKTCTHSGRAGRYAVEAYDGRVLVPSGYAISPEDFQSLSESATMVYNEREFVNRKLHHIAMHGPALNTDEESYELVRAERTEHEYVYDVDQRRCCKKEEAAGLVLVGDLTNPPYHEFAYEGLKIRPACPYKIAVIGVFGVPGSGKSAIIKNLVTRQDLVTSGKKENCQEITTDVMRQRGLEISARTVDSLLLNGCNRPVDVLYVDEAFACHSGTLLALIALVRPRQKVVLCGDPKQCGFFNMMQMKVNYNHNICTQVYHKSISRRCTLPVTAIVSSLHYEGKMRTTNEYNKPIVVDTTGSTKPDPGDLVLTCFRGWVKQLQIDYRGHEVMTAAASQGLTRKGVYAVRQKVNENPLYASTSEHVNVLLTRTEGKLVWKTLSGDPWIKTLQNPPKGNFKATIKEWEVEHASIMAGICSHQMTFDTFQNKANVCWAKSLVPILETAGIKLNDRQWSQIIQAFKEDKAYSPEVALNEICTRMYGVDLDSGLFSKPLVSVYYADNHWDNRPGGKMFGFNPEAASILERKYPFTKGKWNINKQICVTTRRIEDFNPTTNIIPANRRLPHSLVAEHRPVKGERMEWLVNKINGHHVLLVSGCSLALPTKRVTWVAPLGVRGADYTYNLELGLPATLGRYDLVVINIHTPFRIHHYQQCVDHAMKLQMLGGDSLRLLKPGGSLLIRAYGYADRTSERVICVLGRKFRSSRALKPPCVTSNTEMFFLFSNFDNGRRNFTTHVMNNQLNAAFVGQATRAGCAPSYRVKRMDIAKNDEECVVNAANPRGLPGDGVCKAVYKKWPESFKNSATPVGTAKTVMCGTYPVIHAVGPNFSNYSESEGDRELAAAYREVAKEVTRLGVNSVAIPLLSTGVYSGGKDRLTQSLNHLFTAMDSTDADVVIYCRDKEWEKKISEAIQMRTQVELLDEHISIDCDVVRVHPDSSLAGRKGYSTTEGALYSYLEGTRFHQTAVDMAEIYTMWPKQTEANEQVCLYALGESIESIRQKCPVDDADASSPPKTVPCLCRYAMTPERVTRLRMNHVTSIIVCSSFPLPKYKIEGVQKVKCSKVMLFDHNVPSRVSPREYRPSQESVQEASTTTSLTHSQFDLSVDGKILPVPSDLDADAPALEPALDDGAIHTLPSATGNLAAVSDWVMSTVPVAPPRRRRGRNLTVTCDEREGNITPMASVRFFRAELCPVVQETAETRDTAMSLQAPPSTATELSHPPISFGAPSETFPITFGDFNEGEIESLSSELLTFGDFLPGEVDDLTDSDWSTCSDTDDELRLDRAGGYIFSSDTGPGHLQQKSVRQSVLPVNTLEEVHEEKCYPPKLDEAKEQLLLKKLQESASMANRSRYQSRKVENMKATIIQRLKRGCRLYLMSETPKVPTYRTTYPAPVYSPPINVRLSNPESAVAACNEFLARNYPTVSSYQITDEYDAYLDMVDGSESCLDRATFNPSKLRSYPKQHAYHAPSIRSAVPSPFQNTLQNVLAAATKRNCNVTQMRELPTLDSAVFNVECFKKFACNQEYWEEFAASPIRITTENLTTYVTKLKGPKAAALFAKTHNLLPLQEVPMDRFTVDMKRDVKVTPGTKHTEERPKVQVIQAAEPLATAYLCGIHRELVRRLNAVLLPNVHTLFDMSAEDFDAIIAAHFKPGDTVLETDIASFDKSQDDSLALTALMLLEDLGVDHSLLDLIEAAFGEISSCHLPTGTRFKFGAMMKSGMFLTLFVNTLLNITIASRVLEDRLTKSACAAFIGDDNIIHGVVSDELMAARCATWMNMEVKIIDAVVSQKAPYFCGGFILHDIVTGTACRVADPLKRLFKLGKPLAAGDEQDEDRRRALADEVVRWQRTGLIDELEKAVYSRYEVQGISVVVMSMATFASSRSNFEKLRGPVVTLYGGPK
The depositor's hits bear a star; i = inactive; ? = inconclusive; [ ] = remark or other dose. On the % scale 0 is the no-effect control and ±100 the full control effect; potency means the concentration at half of the fitted maximal effect. These rows are one share of the data. The share of hits here may be higher or lower than overall.

SMILES | nsP2pro inh
O=C(O)Cc1cccc(OCCCN(Cc2cccc(C(F)(F)F)c2Cl)CC(c2ccccc2)c2ccccc2)c1 | 291.3%[activator]
CC[C@H]1C[C@H]2[C@@H]3CCC4=CC(=O)CC[C@@H]4[C@H]3CC[C@]2(C)[C@H]1O | 4.8%
Cc1ccc(C)c2sc(NC(=O)c3ccc(S(=O)(=O)N4CCC(C)CC4)cc3)nc12 | -13.9%
Cc1nn(-c2ccccc2)c2c1C(C1CC1)N(C1CCN(Cc3cccc(OC(F)(F)F)c3)CC1)C2=O (configuration not stated) | 2.1%
Cc1nn(CC(=O)O)c(=O)c2cc3cc(F)ccc3n12 | 1.1%
CCOC(=O)C1(Cc2ccccc2)CCNCC1 | -4.4%
Cc1ccc(NC(=O)c2cc3c(-c4ccccc4)nn(-c4ccccc4)c3s2)cc1 | -25.4%
O=C([C@@H]1C[C@H](N2CCN(c3ncccn3)CC2)CN1)N1CCC(F)(F)C1 | -12.8%
COc1ccnc(NC(=S)N2CCN(c3cc(Cl)cc(Cl)c3)CC2)c1 | i
CN1C[C@@H](NC(=O)Nc2ccccc2)C[C@H]1c1nc(Cc2ccccc2)no1 | ?
O=C(O)CN1C(=O)/C(=C/c2ccc(-c3cccc(Cl)c3)o2)SC1=S | ?
COc1ccc(C(=O)N2CC(N(C3CCOCC3)S(C)(=O)=O)C2)cn1 | ?
CCC1CN2CCc3cc(OC)c(OC)cc3C2CC1CC1=NCCc2cc(O)c(OC)cc21 (configuration not stated) | -15.5%[10 µM]
CNC(=O)c1ccc(-c2cnc3cnc(C(=O)N(C)c4ccc(Cl)cc4)cn23)cc1 | -3.3%
CC[C@H](C)[C@@H]([C@@H](CC(=O)N1CCC[C@H]1[C@H](OC)[C@@H](C)C(=O)N[C@@H](Cc1ccccc1)c1nccs1)OC)N(C)C(=O)[C@@H](NC(=O)C(C)(C)N)C(C)C | 7.3%
C=C1C(=O)OC2CC3(C)C(O)C(=O)C=C(C)C3CC12 (configuration not stated) | 93.3%[activator]
OC[C@H]1O[C@@H](OC(CCCCc2ccc(O)cc2)CCc2ccc(O)cc2)[C@H](O[C@@H]2OC[C@](O)(CO)[C@H]2O)[C@@H](O)[C@@H]1O (some centres not stated) | 4.0%[10 µM]
O[C@H]1[C@H](NCc2ccco2)[C@H]2CO[C@H](O2)[C@@H]1N1CCC(Cc2ccccc2)CC1 | i
CCC1(C(=O)O)CCCN(Cc2ccccc2)C1 (configuration not stated) | 2.5%
O=C1C[C@@]2(C(=O)N1)C(=O)N(Cc1ccc(Br)cc1F)C(=O)c1cccn12 | 0.2%
Cc1cccc(NC(=O)Cn2c(=O)c3cccn3c3ccccc32)c1C | -11.6%
Cc1cc(C)n2ncc(C(=O)Nc3ccc4c(c3)CCC4)c2n1 | ?
CCc1nnc(NC(=O)c2nc(S(=O)(=O)Cc3cccc(C)c3)ncc2Cl)s1 | ?
CN(CCN1CCC(OC(=O)Nc2ccccc2-c2ccccc2)CC1)C(=O)c1ccc(CN2CCC(C(N)=O)CC2)cc1 | 1.3%
Cc1nnc(N2CCN(C(=O)Nc3cc(F)ccc3F)CC2)c2nn(-c3ccc(Cl)cc3)c(C)c12 | -7.6%
O=C(Nc1ccc2n(c1=O)C[C@H]1C[C@@H]2CN(C(=O)NC2CCCCC2)C1)c1ccccn1 | -2.7%
Cc1ccc(-c2nc3ccccc3s2)cc1NC(=O)c1ccc(-c2cccc(Cl)c2)o1 | ?
O=S(=O)(c1ccccc1)N1CCC(F)(c2nc(-c3ccncc3)no2)CC1 | i
Cc1c2cnn(CC(=O)N3CCCCC3)c(=O)c2c(C)n1Cc1ccc(F)cc1 | -21.7%
Cc1nc([C@@H]2CN(C(=O)c3nn(C)c4ccccc34)C[C@H]2C(N)=O)n[nH]1 | i
COCCOCC(=O)N1CCC2(CC1)c1nccn1-c1ccccc1CN2CC(C)C | 3.3%
Cc1oc(-c2ccc(Cl)cc2)nc1Cn1c(=O)cc(C)c2c(C)nn(-c3ccccc3)c21 | -17.8%
Cc1ccc(-n2nc(CO)c(C(=O)NCCCCc3ccccc3)n2)cc1 | -15.6%
COc1ccc(C(=O)Nc2nc3nc(C)c(Cc4ccccc4)c(=O)n3[nH]2)cc1OC | 1.5%
CC1(C)CC[C@]23CO[C@@]4(CCC5[C@@]6(C)CC[C@H](O[C@@H]7OC[C@H](O[C@@H]8O[C@H](CO)[C@@H](O)[C@H](O)[C@H]8O[C@@H]8OC[C@@H](O)[C@H](O)[C@H]8O)[C@H](O)[C@H]7O[C@@H]7O[C@H](CO)[C@@H](O)[C@H](O)[C@H]7O)[C@@](C)(CO)C6CC[C@@]5(C)[C@]4(C)C[C@H]2O)[C@@H]3C1 (some centres not stated) | 1.9%[5.1 µM]
CC(C)CCCC1CN(C(=O)CN2CCCC2=O)CCO1 (configuration not stated) | -23.2%
C=C1CCC2C(C)(C)C(O)CCC2(C)C1CCC(C)CCOC(C)=O (configuration not stated) | 13.3%
Cc1ncc(CO)c2c1Oc1nc(-c3ccccc3F)nc(SCC(=O)N3CCCCC3)c1C2 | -11.2%
C=CC(C)(O)CC/C=C(\C)C(=O)O[C@@H]1[C@@H](O)[C@H](OC(C)(C=C)CC/C=C(\C)C(=O)O[C@@H]2O[C@H](CO)[C@@H](O)[C@H](O)[C@H]2O)O[C@H](CO)[C@H]1OC(=O)/C(C)=C/CCC(C)(O)C=C (some centres not stated) | ?
Cc1ccc2nc(NC(=O)c3cccn(Cc4ccccc4F)c3=O)sc2c1 | -13.5%
CCNC(=O)[C@@H]1C[C@H](n2cc(CN(C)C(=O)NC3CCCCC3)nn2)CN1 | -2.1%
N#Cc1c(-c2ccc(O)cc2)no[n+]1[O-] | i
C[C@@H](O)[C@H]1C(=O)N2C(C(=O)[O-])=C(SC3Cn4cnc[n+]4C3)[C@H](C)[C@H]12 (some centres not stated) | -26.4%[5.1 µM]
Cc1cc(C=CC#N)cc(C)c1Nc1nc(Nc2ccc3c(c2)CCC3)c2[nH]cnc2n1 | -20.6%
COc1ccc(-c2ccc3nc(-c4ccc(Cl)cc4)oc3c2)c(OC)c1OC | -2.1%
COc1ccc(OC)c(C(O)CNC(=O)CN)c1 (configuration not stated) | -0.2%
Cc1ccc(OCCn2c(CCNC(=O)C3CCNCC3)nc3ccccc32)cc1 | 0.3%
COc1ccccc1-c1noc(-c2ccc(NCC3CCCO3)c([N+](=O)[O-])c2)n1 (configuration not stated) | -21.0%
COc1ccccc1C1CCN(Cc2cn(-c3ccccc3)nn2)CC1 | i
CC1=C(C(=O)NCc2ccc(Cl)cc2)C2(CCC(C)CC2)OC1=O (configuration not stated) | -16.2%
Nc1ccc(CNc2ccc([S+](=O)([O-])Nc3nccs3)cc2)c(O)c1 | i
COc1cc2c(cc1OC)C(COc1cc(C)cc(C)c1)N(C(=O)COc1ccccc1)CC2 (configuration not stated) | -15.2%
Cc1cccc(C)c1Nc1c(-c2ccccn2)nc2c(C)cccn12 | 24.7%
COC(=O)C[C@@H]1C(C(=O)O)=CO[C@@H](O[C@@H]2O[C@H](CO)[C@@H](O)[C@H](O)[C@H]2O)/C1=C\COC(=O)/C=C/c1ccc(O)c(OC)c1 | -1.5%[10 µM]
CCN1CCN(c2ccc(Nc3ccc(-c4ccc(C(N)=O)cc4)n4ncnc34)cc2)CC1 | 102.4%[activator]
COc1cccc(CNC(=O)c2cc(Sc3cccc(Cl)c3)nc3ccccc23)c1 | -17.0%
Cc1nnc(-c2ccc(-c3ccc(C(=O)Nc4ccc(O)c(N5CCN(C)CC5)c4)cc3)c(C)c2)o1 | 28.6%
N#Cc1ccc(C(=O)N2CCC(Cc3nc(-c4cccnc4)n[nH]3)C2)cc1 (configuration not stated) | i
Cc1[nH]c(-c2ccccc2)nc1C(=O)N1CCCC[C@H](N(C)C)C1 | i
CCOc1ccccc1NC(=O)Cn1nnc2sc3c(c2c1=O)CCC(C(C)(C)C)C3 (configuration not stated) | -16.0%

An excerpt from above in order of molecular weight, largest number first.
SMILES | nsP2pro inh
COc1cccc(CNC(=O)c2cc(Sc3cccc(Cl)c3)nc3ccccc23)c1 | -17.0%
Cc1ccc(OCCn2c(CCNC(=O)C3CCNCC3)nc3ccccc32)cc1 | 0.3%
COc1ccccc1C1CCN(Cc2cn(-c3ccccc3)nn2)CC1 | i

Reprinted at random: 5 records from the list, in no set order.
SMILES | nsP2pro inh
CC(C)CCCC1CN(C(=O)CN2CCCC2=O)CCO1 (configuration not stated) | -23.2%
Cc1nc([C@@H]2CN(C(=O)c3nn(C)c4ccccc34)C[C@H]2C(N)=O)n[nH]1 | i
CCOc1ccccc1NC(=O)Cn1nnc2sc3c(c2c1=O)CCC(C(C)(C)C)C3 (configuration not stated) | -16.0%
CCOC(=O)C1(Cc2ccccc2)CCNCC1 | -4.4%
Cc1nn(CC(=O)O)c(=O)c2cc3cc(F)ccc3n12 | 1.1%

(further entries)
SMILES | nsP2pro inh
COC1C(O)C(OC2CCC3(C)C(CCC45CCC6C7(COC(=O)C7)OC4(O)C6(C)CCC35)C2)OC(C)C1OC1OC(CO)C(OC2OC(CO)C(O)C(O)C2O)C(O)C1O (configuration not stated) | -3.7%[5.1 µM]
COc1ccccc1NC(=O)C1=C(C)Nc2nc(SCc3ccccc3Cl)nn2C1c1cccnc1 (configuration not stated) | -5.5%
O=C(OCC#CCSc1nnc(-c2ccc(Cl)cc2)o1)c1ccc(F)cc1 | -10.0%
Cc1coc2c1c(C)cc1oc(=O)cc(C)c12 | -8.6%
CCCc1cc(=O)[nH]c(=S)[nH]1 | -3.0%
N#Cc1cccc(-c2nc(-c3cccnc3)no2)c1 | -4.2%[10 µM]
C[C@@H](N)C(=O)N[C@@H](CO)C(=O)N[C@H](C(=O)N[C@H](C(=O)N[C@H](C(=O)N[C@@H](CC(N)=O)C(=O)N[C@@H](Cc1ccc(O)cc1)C(=O)N[C@H](C(N)=O)[C@@H](C)O)[C@@H](C)O)[C@@H](C)O)[C@@H](C)O | -6.5%
C=Cc1ccc(Cn2c(C(=O)O)c(CNCCc3ccco3)c3ccc(C)cc32)cc1 | 0.5%
O=C(NC1CCCC1)c1cnn(-c2ccc(F)cc2F)c1C1CCNCC1 | ?
CC1(C)C(=O)CCC2(C)C1C(O)C=C1COC(=O)C12O (configuration not stated) | -8.8%
Cc1ccc(S(=O)(=O)c2nnn3c2nc(NC(C)c2ccccc2)c2sccc23)cc1 (configuration not stated) | -9.8%
N#Cc1nc(Nc2ccc(C(F)(F)F)cc2)nc(NC2CCCC2)n1 | -1.6%
CC(C)N1CCN(C(=O)C2N(C(C)C)C(=O)C23CCCC3)CC1 (configuration not stated) | -3.6%
CC(=O)Nc1nnc(S(N)(=O)=O)s1 | ?
C/C=C/[C@@H]1C=C[C@@H]2C[C@H](C)CC[C@H]2[C@]1(C)/C(O)=C1/C(=O)[C@@H](CO)N(C)C1=O | 48.2%[activator]
CCCN(Cc1nccn1C)C(=O)c1cn(Cc2ccc(F)cc2)nn1 | i
CN(C)C/C=C/C(=O)Nc1cccc(C(OCCN2CCCCC2)c2cc3nccc(C(=O)O)c3s2)c1 (configuration not stated) | -0.7%
CCCCc1ccc(-n2cc(CN3CCN(C(C)=O)CC(O)C3)cn2)cc1 (configuration not stated) | 4.9%
O=C(Nc1cccc(Cl)c1)[C@@H]1C[C@H](c2ccc(F)cc2)N([S+](=O)([O-])C2CC2)C1 | i
COc1cc2c(cc1OCC1CC1)NC(=O)C21CCN(c2ncc(C(C)C)cn2)CC1 | -0.6%[39.2 µM]

Reformatted: 2 of the compounds above
Molecule: C=Cc1ccc(Cn2c(C(=O)O)c(CNCCc3ccco3)c3ccc(C)cc32)cc1
  nsP2pro inh: 0.5%
Molecule: COc1cc2c(cc1OCC1CC1)NC(=O)C21CCN(c2ncc(C(C)C)cn2)CC1
  nsP2pro inh: -0.6%[39.2 µM]

The list goes on:
SMILES | nsP2pro inh
Cc1c(F)c(N2CCNC(C)C2)cc2c1c(=O)c(C(=O)O)cn2C1CC1 (configuration not stated) | 19.4%
Cc1cnc(-c2ccccc2C(C)O)nc1NCC1CCN(c2cccnc2)CC1 (configuration not stated) | i
CCOc1ccc(-n2cc(-c3ccccc3)c3c(NCCc4ccccc4)ncnc32)cc1 | -13.4%
Cc1ccc(N2C(=O)CSC23C(=O)Nc2ccccc23)cc1F (configuration not stated) | -23.1%
COc1ccc([C@@H]2CN(C(=O)Cc3nonc3C)[C@@H]3C4CCN(CC4)[C@@H]32)cc1 | i
CCOC(=O)c1cc(C)n(CC2CCC(C(=O)Nc3cccc(Cl)c3)CC2)c1C (configuration not stated) | -14.6%
COc1ccc(C2(C(=O)N3CCCC(Cn4c(C)nc5cccnc54)C3)CCCCC2)cc1 (configuration not stated) | i
C=C(CO)[C@@]12O[C@@H]1[C@@]1(C)C(=CC2=O)CC[C@@H](O)[C@@H]1C | -12.3%
Cc1ccnn1CCC(=O)N1CCOC(Cc2ccc(F)cc2)C1 (configuration not stated) | i
COc1ccc(Cl)cc1Nc1ncncc1-c1nc(-c2ccccc2)no1 | i
CCOc1ccc(NC(=O)C(NS(=O)(=O)c2cccc3nsnc23)c2ccccc2)cc1 (configuration not stated) | -16.1%
CC(C)NC[C@@H](O)COc1ccc(CC(N)=O)cc1 | 8.8%
COc1ccc(Nc2c3c(nc4nncn24)CCC3)cc1OC | -19.5%
Cc1ccc(C)c(Cn2c(C(C)NC(=O)c3ccc(F)cc3)nc3ccccc32)c1 (configuration not stated) | -22.2%
Cc1noc(C)c1C(=O)N1CCOc2ccc(CCC(=O)NCC3CC3)cc2C1 | 4.6%
Cc1cc(CN(C)C(=O)c2cc(COc3ccc(F)cc3F)on2)n[nH]1 | 3.3%
O=C(NC1CCCc2c1cnn2-c1ccc(F)cc1F)C1CC1 (configuration not stated) | -7.7%
COc1ccc(C2c3ccc(OCc4ccccc4)cc3Oc3ncn(CCN4CCOCC4)c(=N)c32)cc1OC (configuration not stated) | i
O=C(OCC#CCSc1nnc(-c2ccc3ccccc3c2)o1)c1cccs1 | -9.2%
Cc1nc(CCN)no1 | i
